VACV Venus inh = qHTS for Stage-Specific Inhibitors of Vaccinia Orthopoxvirus: Venus Reporter Primary qHTS; 330,000 tested, 0.46% active; Potency, µM (highest dose often 36.5 µM), inactives show at the top dose activity change, negative = inhibition, usual class: inhibitors; AID 720580, 2013; Vaccinia virus Venus reporter expression, fluorescence; active means well fitted inhibition curve with a large enough effect; inconclusive means small, poorly fitted or top-dose-only effect; inactive means no such curve, though single readings can be large or run the other way; tested in A549 cells; further: nearly all actives have a fitted effect of over 30% in size; inactives centre near -10
VACV mCherry inh = qHTS for Stage-Specific Inhibitors of Vaccinia Orthopoxvirus: mCherry Reporter Primary qHTS; 310,000 tested, 0.63% active; Potency, µM (titrated, usually from 36.5 µM), without a hit: at the top dose activity change, negative = inhibition, most hits filed as inhibitors; Vaccinia virus mCherry reporter infection, fluorescence; about a quarter of the inactives have no number; active = well fitted inhibition curve with a large enough effect; inconclusive = small, poorly fitted or top-dose-only effect; inactive = no such curve, though single readings can be large or run the other way; tested in A549 cells; further: nearly all actives have a fitted effect of over 35% in size; inactives centre near -10
An asterisk follows results filed as active; i = inactive; ? = inconclusive; . = not tested or not shown; & = joins results of further samples; [ ] = remark or other dose. On the % scale 0 is the no-effect control and ±100 the full control effect; potency means the concentration at half of the fitted maximal effect.

SMILES	VACV Venus inh	VACV mCherry inh
COC(=O)c1c(-n2cnnn2)sc(C)c1C	-14%	-10%
O=C1/C(=C\c2ccco2)SC(=S)N1C1CCS(=O)(=O)C1 (stereo not drawn)	4%	?
CCOC(=O)c1c(C)oc2c1cc(NS(=O)(=O)c1ccc(C)cc1)c1ccccc12	-10%	-22%
Cc1cccc2cc(CN(CC3CCCO3)C(=O)c3cnccn3)c(=O)[nH]c12 (stereo not drawn)	-4%	i
COc1ccc(/C(N)=N/OC(=O)c2ccco2)cc1	4%	1%
C=CCOc1ccccc1CN1CCC(Oc2ccc(C(=O)N3CCCCC3)cc2)CC1	-17%	?
CCOC(=O)C1=C(C)N(C)C(=S)NC1c1ccccc1Cl (stereo not drawn)	-4%	-2%
O=C(NCc1ccco1)C1CC(=O)N(c2cccc(Cl)c2)C1 (stereo not drawn)	1%	-23%
O=C(c1cccc(NC2=NC3CS(=O)(=O)CC3S2)c1)N1CCN(c2ncccn2)CC1 (stereo not drawn)	0%	7%
CCCCN(CC)CCCNC(=O)c1ccc(CS(=O)(=O)c2ccccc2C)o1	-8%	-17%
COc1cc(O)c(C(C)=O)cc1OC	1%	-8%
CCOc1ccc(NC(=O)CSc2nnc(COc3c(C)cccc3C)o2)cc1	-6%	-13%
Cc1ccc(CNC(=O)CCNS(=O)(=O)c2cccc3nsnc23)cc1	-7%&-4%	-4%
CC(C)NCc1nnc(-c2ccccc2Cl)o1	-13%	-21%
CCCc1cc(=O)oc2cc(C)c3c(C)coc3c12	-5%	-13%
CCCCOc1ccc(C(=O)NO)cc1	-15%	-11%
CCOC(=O)c1ccc(-n2c(O)c(/C=N/NC(=O)C3COc4ccccc4O3)c3ccccc3c2=O)cc1 (stereo not drawn)	-11%	0%
Cc1cccc(NC(=O)C2CCN(c3nnc(C)c4c(C)n(-c5ccccc5)nc34)CC2)c1C	-1%	-10%
OC(COCc1cccs1)CN1CCN(c2cccc(C(F)(F)F)c2)CC1 (stereo not drawn)	-15%	-15%
Cc1ccc(-n2ncc(C(=O)N3CCN(c4ccccn4)CC3)c2C2CCN(C(=O)OC(C)(C)C)CC2)cc1	-7%	i
O=c1c2ccccc2c(-c2ccccc2)nn1Cc1c(Cl)cccc1Cl	-10%	-7%
COc1ccc(CCNC(=O)CCCCn2c(=O)c3ccccc3n(Cc3cccc(C)c3)c2=O)cc1OC	-12%	-21%
C/C=C/C(=O)Nc1cccc(C2=NOC3(C2)C[C@@H](C(N)=O)N(C(=O)C(c2ccccc2)c2ccccc2)C3)c1 (stereo partly drawn)	-30%	-5%
CCSc1nnc(-c2cccs2)o1	-1%	-12%
Cc1ccc(S(=O)(=O)Nc2cccc3c2O[C@@H](CN(C)C(=O)Nc2ccc4c(c2)OCO4)[C@H](C)CN([C@@H](C)CO)C3=O)cc1	-23%	i
SMILES	VACV Venus inh	VACV mCherry inh
COc1ccc(S(=O)(=O)N/N=C(/C)c2ccco2)cc1	-30%	-2%
Cc1ccc(S(=O)(=O)c2nnn3c2nc(N2CCN(c4ccccn4)CC2)c2ccccc23)cc1C	-20%	-23%
COc1ccc(C2(CNC(=O)c3ccc(Br)o3)CCOCC2)cc1	-1%	.
NC(=O)N1N=C2/C(=C/c3ccccc3)CCCC2C1c1ccccc1 (stereo not drawn)	-4%	?
CC(C)C(=O)Nc1ncc2c(n1)CC(c1cccs1)CC2=O (stereo not drawn)	?	.
O=C(OCc1cccc(F)c1)c1ccc2c(=O)n3c(nc2c1)CCC3	-8%	5%
CC(C)c1ccccc1	-8%	-17%
O=C(NNC(=O)c1ccccc1-c1ccccc1C(=O)O)c1cccc([N+](=O)[O-])c1	-8%	-25%
COc1ccccc1C(=O)NNC(=O)c1csc(N2CCOCC2)n1	-6%	?
c1ccc2sc(C3CCCNC3)nc2c1 (stereo not drawn)	-5%	-16%
Cc1ccc(S(=O)(=O)N2[C@@H](Cc3ccccc3)CO[C@H]2CC(=O)c2cccs2)cc1	-22%	-29%
O=Cc1cc([N+](=O)[O-])ccc1N1CCOCC1	-6%	-12%
O=C(CSc1n[nH]c(-c2ccncc2)n1)Nc1ccccc1Cl	-3%	i
COc1cccc(C(c2sc3ncnn3c2O)N2CCc3ccccc3C2)c1 (stereo not drawn)	-6%	-9%
O=C1CCC[C@@H]2Cc3nc4ccc(Cl)cc4cc3[C@@H]3CCN1[C@H]23	-16%&-11%	-13%&-1%
Cc1ccc(-n2c(O)c(/C=N/N3CCCCCC3)c(=O)[nH]c2=O)cc1C	-13%[7.34 µM]	-9%[7.34 µM]
CC1=CC[C@@]23CCCN2C(=O)CCC[C@H]3C1	-16%	i
COc1cccc(CNC(=O)C2CCCN(S(C)(=O)=O)C2)c1 (stereo not drawn)	-9%	i
COc1ccc(C(=N/O)/C(=N/O)c2ccc(OC)cc2)cc1	-8%	-7%
Cc1c(C(=O)OC2CCCCCC2)[nH]c2c1C(=O)CC(c1ccccc1Cl)C2 (stereo not drawn)	-25%	-29%
O=C(Nc1ccc(F)c(F)c1)c1cc(S(=O)(=O)NCc2ccc3c(c2)OCO3)ccc1F	-11%	i
Cn1ncc2c(=S)[nH]c(=S)[nH]c21	1%	2%
Cn1c(C=O)c(C#CC(C)(C)O)c2ccccc21	-19%	?
COc1cc(-c2n[nH]c(=S)n2Cc2ccccc2)cc(OC)c1OC	-12%	i
O=C(c1ccc(N2CCCC2)c([N+](=O)[O-])c1)N1CCN(S(=O)(=O)c2ccccc2)CC1	-16%	-21%

In the list so far, 3 have an aryl thioether with sulfur outside any ring.
SMILES	VACV Venus inh	VACV mCherry inh
CCOc1ccc(NC(=O)CSc2nnc(COc3c(C)cccc3C)o2)cc1	-6%	-13%
CCSc1nnc(-c2cccs2)o1	-1%	-12%
O=C(CSc1n[nH]c(-c2ccncc2)n1)Nc1ccccc1Cl	-3%	i

The list continues.
SMILES	VACV Venus inh	VACV mCherry inh
Cc1ncc2c(c1CNC(=O)c1ccc3c(c1)OCO3)CCN(C(=O)c1cn3ccccc3n1)C2	5%	-10%
O=C1C=C(c2ccccc2)C(c2ccccc2)C1O (stereo not drawn)	-12%	-1%
CCCCN(CCCC)C(=O)c1cc(Cl)ccc1[N+](=O)[O-]	-15%	-23%
COCCN(CCOC)C(=O)c1ccc(NS(=O)(=O)c2ccc3c(c2)OCCO3)cc1	-8%	-7%
COc1ccc2c(c1OC)C(=O)O[C@H]2C1c2c(cc3c(c2OC)OCO3)CCN1C (stereo partly drawn)	-15%	i
CN(C)c1ccc(C2CC(=O)NC3=C2C(=O)CC(C)(C)C3)cc1 (stereo not drawn)	-5%	-14%
N/C(=N\OC(=O)c1ccc(Cl)cc1[N+](=O)[O-])c1ccccn1	-14%	-12%
NC(=O)CN1C(=O)C(O)(CC(=O)/C=C\c2ccc3c(c2)OCO3)c2ccccc21 (stereo not drawn)	-11%	?
Cn1c(=O)c([N+](=O)[O-])c(NCc2ccc3c(c2)OCO3)c2ccccc21	-10%	-1%
COc1cccc(CNC(=O)c2c(OC)cc(=O)n3c2CCN(C(=O)c2ccc(C)s2)CC3)c1	-5%	i
CN(CCc1ccccc1)C(=O)c1ccc(NC(=O)Cc2ccc(NC(=O)C3CCN(C(=O)c4ccccc4)CC3)cc2)cc1	-20%	?
COc1ccc(CC(=O)Nc2ccc(S(=O)(=O)Nc3cc(OC)nc(OC)n3)cc2)cc1	-10%	2%
COCCNC(=O)C1CCCN(Cc2cccc(Cl)c2)CC1 (stereo not drawn)	-1%	4%
O=c1c(Br)c(N2CCCCC2)cnn1-c1ccccc1	-9%	-18%
CS(=O)(=O)NCCNc1ccc(Cl)cc1[N+](=O)[O-]	-12%	-7%
CCCn1c(=O)n(-c2cc(Cl)c(OC)cc2OC)c(=O)c2c3c(sc21)CN(C(C)=O)CC3	-14%	-7%
COc1ccccc1C(=O)C1CCCN(C(=O)c2cccc(Cn3cccn3)c2)C1 (stereo not drawn)	-20%	-24%
COC(=O)C1(C(=O)OC)NOC2C(=O)N(N(C)c3ncc(C(F)(F)F)cc3Cl)C(=O)C21 (stereo not drawn)	-7%	i
CCCCNC(=O)C1c2ccccc2OCC(=O)N1CCc1ccccc1 (stereo not drawn)	5%	12%
COC(CC(=O)NNC(=S)Nc1ccc(Cl)cc1)OC	-20%	i
Fc1ccc(CCNCc2ccc(Cl)c(Cl)c2)cc1	?	?
COc1ccc(Cc2c(-c3ccco3)nc3c(C)cc(Br)cn23)c(C)c1	-4%	i
S=c1[nH]nc(-c2ccncc2)n1/N=C/C=C/c1ccccc1	-19%	-29%
Cc1ccc(C2(c3ccc(C)cc3)CC2C(=O)NCc2cccnc2)cc1 (stereo not drawn)	-25%	-12%
O=C(COC(=O)/C=C/c1ccco1)Nc1ccccc1	-8%	?
SMILES	VACV Venus inh	VACV mCherry inh
C=CCN(c1ccccc1)S(=O)(=O)c1cccc(C(=O)NCc2ccco2)c1	-26%	-3%
Cc1cc(C(=O)CN2C(=O)C(=O)N(C3CCCC3)C2=O)c(C)n1-c1ccc(F)cc1	-5%	2%
CS(=O)(=O)N(CC(=O)NCc1ccc2c(c1)OCO2)c1ccccc1	-5%	-13%
CCN(CC(=O)Nc1ccc(NC(C)=O)cc1)C(=O)/C=C/c1cn(-c2ccccc2)nc1-c1ccc(C)cc1	?	?
CCC(C(=O)OCCN(CC)CC)c1ccccc1 (stereo not drawn)	-20%	-4%
CCc1ccc(N2CCn3c2nc2c3c(=O)n(Cc3c(F)cccc3Cl)c(=O)n2C)cc1	-8%	-6%
O=C(N/N=C/c1ccco1)c1cccc(NC(=O)c2cccc(Cl)c2)c1	-8%	?
C=CCNC(=O)C1CCN(S(=O)(=O)c2cccs2)CC1	-13%	i
Cc1cccc(CN2CCN(CC(=O)O)C2=O)c1	-4%	-15%
Cc1ccc2c(CN(C)Cc3ccc(OC(F)F)cc3)cc(=O)oc2c1C	0%	-14%
Cc1ccc(Cl)cc1N1CCN(C(=O)CCc2nnc3n(C)c(=O)c4ccccc4n23)CC1	-12%	-21%
CCN(C[C@H]1N[C@@](CC)(C(=O)OC)[C@H]2C(=O)N(C)C(=O)[C@@H]12)C(=O)c1ccccc1	-12%	-15%
O=C(c1cc(-c2cccc(Cl)c2)nc2ccccc12)N1CCN(c2ccccn2)CC1	-17%	-5%
O=[N+]([O-])c1cccc(CN2C[C@@]34C=C[C@@H](C[C@@H]3S2(=O)=O)O4)c1	?	?
CCOC(=O)C1CCCN(C(=O)c2ccc(C)c(F)c2)CC1 (stereo not drawn)	-7%	i
Cc1nc2ccc(S(=O)(=O)NCC(=O)N3CCC(C)CC3)cc2s1	-9%	.
C/C(CC(=O)Nc1ccccc1Br)=N\NC(=O)C(=O)N1CCCC1	-20%	-1%
COC(=O)C1=C(C)N(Cc2ccccc2)C(=O)/C1=C\c1ccco1	3%	?
CCCN1CCN(C(=O)Cn2nc(C)n3c(cc4c(OC)cccc43)c2=O)CC1	-7%	i
Cc1cc(SCC(=O)N(C)C2CCS(=O)(=O)C2)nc2c(C)cccc12 (stereo not drawn)	-5%	i
O=C(Nc1ccc(Oc2cccc(C(F)(F)F)c2)nc1)c1ccccc1	-20%	-12%
CC(=O)Nc1ccc(NC(=S)NC(=O)c2cc3ccccc3o2)cc1	-13%	-16%
CCOc1ccc(N(C)S(=O)(=O)c2cc(-c3cc(C)no3)ccc2OC)cc1	-23%	i
Nc1cc2c(cc1Cl)-c1ccccc1C2=NO	?	?
CN(C(=O)CSc1nc2ccccc2n1Cc1ccccc1C#N)c1ccccc1	-19%	-4%

Shown field by field: part of the list above.
Structure: Cc1nc2ccc(S(=O)(=O)NCC(=O)N3CCC(C)CC3)cc2s1
  VACV Venus inh: -9%; VACV mCherry inh: .
Structure: C/C(CC(=O)Nc1ccccc1Br)=N\NC(=O)C(=O)N1CCCC1
  VACV Venus inh: -20%; VACV mCherry inh: -1%
Structure: COC(=O)C1=C(C)N(Cc2ccccc2)C(=O)/C1=C\c1ccco1
  VACV Venus inh: 3%; VACV mCherry inh: ?
Structure: CCCN1CCN(C(=O)Cn2nc(C)n3c(cc4c(OC)cccc43)c2=O)CC1
  VACV Venus inh: -7%; VACV mCherry inh: i

Screening results as filed in PubChem BioAssay.
